Screening data (PubChem BioAssay)
GIV Gai3 FP – inhibitors of GIV GBA-motif binding to rat Galpha-i3 | actives 0.42% (n = 210,000) | percent of control (FP), % (test concentration not listed) | AID 1224905 | Galpha-i3/FITC-GIV peptide fluorescence polarization, 90 min; active compounds read low; scaled: aluminum fluoride 0%, vehicle 100%;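 active = replicate mean at 85% of control or lower, very high polarization wells dropped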;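 note: lower values mean more displacement of the GIV peptide from Galpha-i3; wells of about 15 µL received 100 nL stock; the first replicate is given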
Target sequence (P08753 whole entry, looked up): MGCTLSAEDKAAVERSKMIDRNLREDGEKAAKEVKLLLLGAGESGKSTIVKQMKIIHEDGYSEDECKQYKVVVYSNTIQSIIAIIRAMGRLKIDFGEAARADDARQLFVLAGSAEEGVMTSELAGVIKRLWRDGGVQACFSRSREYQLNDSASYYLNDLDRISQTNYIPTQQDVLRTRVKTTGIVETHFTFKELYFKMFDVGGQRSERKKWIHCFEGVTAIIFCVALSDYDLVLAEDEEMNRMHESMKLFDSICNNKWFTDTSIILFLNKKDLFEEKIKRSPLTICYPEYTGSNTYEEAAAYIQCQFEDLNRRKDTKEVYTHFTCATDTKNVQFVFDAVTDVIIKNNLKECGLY
HCMV UL50-53 inh – inhibitors of HCMV UL50-UL53 nuclear egress complex interaction. inhibition, % (test concentration not listed). actives 0.15% (n = 190,000). HTRF UL50-UL53 interaction, normalized percent inhibition. AID 1918969;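 active = both replicates at 50% or more, plus weaker picks with an unusually low signal ratio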;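 note: stock transfer was 100 nL into about 20 µL; 0% = negative control wells and 100% = wells with untagged competitor protein; inactives centre near -12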
Sa growth inh – inhibitors of Staphylococcus aureus growth at 42 °C | S. aureus RN4220 growth, OD600, 20 h; active compounds read low | relative growth, % (test concentration not listed) | actives 0.53% (n = 170,000);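 active = growth at 42 °C up to 50% and 20 or more points under that at 30 °C, or under 10% at both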;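 note: 300 nL library stock went into each well; scaled to the means of positive and negative controls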
Sa growth inh second temp – further read-out of Sa growth inh, marked with its call; relative growth, %; measured here: growth at 30 °C;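 optical density after 20 h as mean of two plates; 100% = untreated growth and lower means inhibition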
* marks the source's active call; other numbers are inactive results; & = joins results of further samples.

Results for O=C1C(c2ccccc2)=Nc2ccccc21 ?
HCMV UL50-53 inh: -28; Sa growth inh: 135; Sa growth inh second temp: 70

Results for Cc1cc(C)n(C(C)CC(=O)NC2CCC(C)CC2)n1 (configuration not stated) ?
GIV Gai3 FP: 104; HCMV UL50-53 inh: -13; Sa growth inh: 104; Sa growth inh second temp: 84

What do the screens show for `Cc1oc2c(c1C(=O)N1CCc3ccccc31)C1=NCCN1C=N2`?
GIV Gai3 FP: 115; HCMV UL50-53 inh: -11; Sa growth inh: 99; Sa growth inh second temp: 101

What do the screens show for `COc1cccc(CN2C(=O)c3ccccc3C2C(=O)NCCc2ccccc2)c1` (configuration not stated)?
GIV Gai3 FP: 100; HCMV UL50-53 inh: -15; Sa growth inh: 90; Sa growth inh second temp: 78

How did CCOc1ncccc1C(=O)N(CC)CC(=O)NCc1ccc(Cl)cc1 do in these assays?
HCMV UL50-53 inh: -8; Sa growth inh: 89; Sa growth inh second temp: 98

What do the screens show for `O/C(=C\c1nc2ccccc2[nH]1)C(F)(F)F`?
HCMV UL50-53 inh: 18; Sa growth inh: 94; Sa growth inh second temp: 99

Results for CCCN1CCC(Nc2ccc(SC)cc2)CC1 ?
GIV Gai3 FP: 100; HCMV UL50-53 inh: -6; Sa growth inh: 100; Sa growth inh second temp: 105

What do the screens show for `O=C(O)c1ccc(/C=N/N2C(=O)c3cccc4cccc(c34)C2=O)cc1`?
HCMV UL50-53 inh: -114; Sa growth inh: 100; Sa growth inh second temp: 84

How did CCOC(=O)c1c(C)oc2ncnc(NC(C(=O)OCC)C(C)O)c12 (configuration not stated) do in these assays?
GIV Gai3 FP: 102&106; HCMV UL50-53 inh: -21&-7; Sa growth inh: 91; Sa growth inh second temp: 82

Results for Cc1ccc(CCNC(=O)CCS(=O)(=O)c2cc3c(cc2C)NC(=O)CO3)cc1 ?
GIV Gai3 FP: 107; Sa growth inh: 106; Sa growth inh second temp: 98

5 neighbouring entries from above, quoted:
Results for O=C1C(c2ccccc2)=Nc2ccccc21 ?
HCMV UL50-53 inh: -28; Sa growth inh: 135; Sa growth inh second temp: 70

Results for Cc1cc(C)n(C(C)CC(=O)NC2CCC(C)CC2)n1 (configuration not stated) ?
GIV Gai3 FP: 104; HCMV UL50-53 inh: -13; Sa growth inh: 104; Sa growth inh second temp: 84

What do the screens show for `Cc1oc2c(c1C(=O)N1CCc3ccccc31)C1=NCCN1C=N2`?
GIV Gai3 FP: 115; HCMV UL50-53 inh: -11; Sa growth inh: 99; Sa growth inh second temp: 101

What do the screens show for `COc1cccc(CN2C(=O)c3ccccc3C2C(=O)NCCc2ccccc2)c1` (configuration not stated)?
GIV Gai3 FP: 100; HCMV UL50-53 inh: -15; Sa growth inh: 90; Sa growth inh second temp: 78

How did CCOc1ncccc1C(=O)N(CC)CC(=O)NCc1ccc(Cl)cc1 do in these assays?
HCMV UL50-53 inh: -8; Sa growth inh: 89; Sa growth inh second temp: 98

Looked up by structure from the list above (two):
Results for Cc1cc(C)n(C(C)CC(=O)NC2CCC(C)CC2)n1 (configuration not stated) ?
GIV Gai3 FP: 104; HCMV UL50-53 inh: -13; Sa growth inh: 104; Sa growth inh second temp: 84

How did CCOc1ncccc1C(=O)N(CC)CC(=O)NCc1ccc(Cl)cc1 do in these assays?
HCMV UL50-53 inh: -8; Sa growth inh: 89; Sa growth inh second temp: 98

Returning to the listing, starting 3 compounds before the break.
What do the screens show for `O=C(O)c1ccc(/C=N/N2C(=O)c3cccc4cccc(c34)C2=O)cc1`?
HCMV UL50-53 inh: -114; Sa growth inh: 100; Sa growth inh second temp: 84

How did CCOC(=O)c1c(C)oc2ncnc(NC(C(=O)OCC)C(C)O)c12 (configuration not stated) do in these assays?
GIV Gai3 FP: 102&106; HCMV UL50-53 inh: -21&-7; Sa growth inh: 91; Sa growth inh second temp: 82

Results for Cc1ccc(CCNC(=O)CCS(=O)(=O)c2cc3c(cc2C)NC(=O)CO3)cc1 ?
GIV Gai3 FP: 107; Sa growth inh: 106; Sa growth inh second temp: 98

How did CCc1ccc(-c2nc(CSCC(=O)N3CCN(c4ccccc4)CC3)c(C)o2)cc1 do in these assays?
GIV Gai3 FP: 105; HCMV UL50-53 inh: -18; Sa growth inh: 94; Sa growth inh second temp: 82

Results for O=C(NC1CCCC1)c1ccc2c(c1)N(Cc1ccccc1)CCS2 ?
GIV Gai3 FP: 106; HCMV UL50-53 inh: -12

Results for CCOC(=O)Nc1ccc2c(CN3CCN(S(=O)(=O)c4ccccc4)CC3)cc(=O)oc2c1 ?
HCMV UL50-53 inh: -5; Sa growth inh: 88; Sa growth inh second temp: 92

How did CCOCCCNC(=O)C1CCN(c2cc(C)nc3c(-c4ccc(OC)c(OC)c4)c(C)nn23)CC1 do in these assays?
GIV Gai3 FP: 105; HCMV UL50-53 inh: -35

Results for Clc1ncnc2c1oc1ccccc12 ?
GIV Gai3 FP: 105; HCMV UL50-53 inh: 11; Sa growth inh: 76; Sa growth inh second temp: 74

What do the screens show for `O=C(NCCN1CCN(Cc2ccc(Br)cc2)CC1)C(=O)Nc1ccc(Cl)cc1`?
GIV Gai3 FP: 101; HCMV UL50-53 inh: -23

Results for S=C1NC2Nc3ccccc3C2=NN1CC1CCCO1 (configuration not stated) ?
HCMV UL50-53 inh: -69; Sa growth inh: 106; Sa growth inh second temp: 87

What do the screens show for `CCOc1ccc2nc(Cl)c(C3CC(c4ccc(C)cc4)=NN3C(=O)CCCC(=O)O)cc2c1` (configuration not stated)?
GIV Gai3 FP: 102; HCMV UL50-53 inh: 10; Sa growth inh: 109; Sa growth inh second temp: 96

What do the screens show for `CN(C)c1ccc(NC(=O)COC(=O)c2cc(Br)ccc2Cl)cc1`?
HCMV UL50-53 inh: -34; Sa growth inh: 94; Sa growth inh second temp: 83

Results for CCOc1ccc(NC(=O)c2sc3nc4c(cc3c2N)CCCCCC4)cc1 ?
GIV Gai3 FP: 105; HCMV UL50-53 inh: -34; Sa growth inh: 110; Sa growth inh second temp: 80

What do the screens show for `CCOc1ccc2[nH]c(S(=O)(=O)CC)nc2c1Cl`?
GIV Gai3 FP: 107; HCMV UL50-53 inh: 3; Sa growth inh: 110; Sa growth inh second temp: 98

What do the screens show for `NC(=O)C(F)(F)c1ccccc1`?
HCMV UL50-53 inh: 8; Sa growth inh: 102; Sa growth inh second temp: 96

How did CN1C(C(=O)c2ccccc2)=C(OC(=O)c2ccccc2Br)c2ccccc2S1(=O)=O do in these assays?
GIV Gai3 FP: 102; HCMV UL50-53 inh: -22

What do the screens show for `Cc1cc(C)c(NC(=O)C2CCN(S(=O)(=O)c3c(C)[nH]c(C)c3C(=O)N3CCCCC3)CC2)c(C)c1`?
GIV Gai3 FP: 107; HCMV UL50-53 inh: -21

How did CCc1nnc2n1N=C(c1ccc(-c3ccc(Cl)cc3Cl)o1)CS2 do in these assays?
GIV Gai3 FP: 108; HCMV UL50-53 inh: -14; Sa growth inh: 87; Sa growth inh second temp: 88

How did Cc1cccc(OCc2nnc(SCC(=O)N(C(C)C)C(C)C)n2Cc2ccco2)c1C do in these assays?
GIV Gai3 FP: 104; HCMV UL50-53 inh: -18; Sa growth inh: 102; Sa growth inh second temp: 79

What do the screens show for `CC1=Nc2cccc3cccc(c23)N1c1ccccc1`?
HCMV UL50-53 inh: -24; Sa growth inh: 126; Sa growth inh second temp: 84

Results for Cc1ccc(NC(=O)CN(c2ccccc2)S(=O)(=O)N(C)C)cc1Cl ?
GIV Gai3 FP: 103; HCMV UL50-53 inh: -62; Sa growth inh: 105; Sa growth inh second temp: 82

What do the screens show for `CC(=O)NC1C(=O)Nc2ccccc2S(=O)(=O)C1c1ccccc1` (configuration not stated)?
GIV Gai3 FP: 96; HCMV UL50-53 inh: -22; Sa growth inh: 101; Sa growth inh second temp: 94

What do the screens show for `COCCn1c(SCC(=O)NC(=O)CN2CCCC2=O)nc2ccccc2c1=O`?
HCMV UL50-53 inh: -19; Sa growth inh: 70; Sa growth inh second temp: 90

What do the screens show for `COc1ccc(-c2nn3c(NC4CCCC4)cc(C)nc3c2C)cc1OC`?
GIV Gai3 FP: 101; HCMV UL50-53 inh: -22

How did COCCn1c(C)cc(C(=O)COC(=O)Cn2c(C)csc2=O)c1C do in these assays?
HCMV UL50-53 inh: -40; Sa growth inh: 94; Sa growth inh second temp: 89

How did Cc1ccc2nc(NC(=O)C3CCN(C(=O)c4ccc(-c5noc(C)n5)cc4)CC3)sc2c1 do in these assays?
GIV Gai3 FP: 103; HCMV UL50-53 inh: -15

How did CC1CCCCN1CCCNC(=O)c1nn(C)c2c1CCc1sccc1-2 (configuration not stated) do in these assays?
GIV Gai3 FP: 108; HCMV UL50-53 inh: 0

What do the screens show for `Cc1nc2cc(NC(=O)CCS(=O)(=O)c3ccccc3)ccc2s1`?
GIV Gai3 FP: 98; HCMV UL50-53 inh: -32; Sa growth inh: 95; Sa growth inh second temp: 78

How did CCOC(=O)N1CCC2(CC1)OC(=O)C(C)=C2C(=O)NCc1ccc(C)cc1 do in these assays?
GIV Gai3 FP: 101; Sa growth inh: 129; Sa growth inh second temp: 90

How did CC1=C(C(=O)Nc2ccc(C)cn2)C(c2ccccc2C(F)(F)F)C2=C(CC(C)(C)CC2=O)N1 (configuration not stated) do in these assays?
GIV Gai3 FP: 101; HCMV UL50-53 inh: -16

Results for CCOC(=O)c1cnc(SCC(=O)c2ccc(Cl)cc2)[nH]1 ?
GIV Gai3 FP: 102; HCMV UL50-53 inh: 5; Sa growth inh: 119; Sa growth inh second temp: 95

How did CC(=O)N/C(=C\c1ccc(NC(C)=O)cc1)C(=O)O do in these assays?
GIV Gai3 FP: 113; HCMV UL50-53 inh: -9; Sa growth inh: 109; Sa growth inh second temp: 99

What do the screens show for `CCOC(=O)c1cnc(Nc2nc3ccccc3o2)nc1CN1CCN(c2ccccc2)CC1`?
GIV Gai3 FP: 102; Sa growth inh: 83; Sa growth inh second temp: 89

What do the screens show for `O=C(O)CSc1nc2ccc(Br)cc2[nH]1`?
GIV Gai3 FP: 102; Sa growth inh: 85; Sa growth inh second temp: 80

What do the screens show for `Oc1ccc(OCc2ccccc2)c(F)c1`?
GIV Gai3 FP: 108; HCMV UL50-53 inh: -17

How did CCCCCCCCCC[Si](C)(C)CCC(=O)NC(Cc1ccc(C)cc1)c1ccccc1 (configuration not stated) do in these assays?
GIV Gai3 FP: 106; HCMV UL50-53 inh: -16

What do the screens show for `CC1(C(=O)N2CCOCC2)Cc2ccccc2C(=O)O1` (configuration not stated)?
GIV Gai3 FP: 96; HCMV UL50-53 inh: -30; Sa growth inh: 93; Sa growth inh second temp: 87

What do the screens show for `O=C(OCc1c(Cl)nc2sccn12)c1ccc(F)cc1Cl`?
HCMV UL50-53 inh: -2; Sa growth inh: 92; Sa growth inh second temp: 96

What do the screens show for `CCCN1C(=O)/C(=N\OCc2ccc(C#N)cc2)c2ccccc21`?
HCMV UL50-53 inh: -65; Sa growth inh: 99; Sa growth inh second temp: 88

Results for O=C(Nc1ccc(Cl)c(-c2nc3ccccc3o2)c1)c1sc2ccccc2c1Cl ?
GIV Gai3 FP: 100; HCMV UL50-53 inh: -12

Results for COc1ccc(CC(=O)NCc2cccc(Cl)c2)cc1OC ?
GIV Gai3 FP: 104; HCMV UL50-53 inh: -4; Sa growth inh: 113; Sa growth inh second temp: 75

Results for Cc1cc(NC(=O)c2ccccc2Br)n(-c2ncnc3c2cnn3-c2ccc(F)cc2)n1 ?
GIV Gai3 FP: 102; HCMV UL50-53 inh: -12

How did Cn1c(SC2CCOC2=O)nc2ccccc2c1=O (configuration not stated) do in these assays?
GIV Gai3 FP: 101; HCMV UL50-53 inh: -18; Sa growth inh: 100; Sa growth inh second temp: 94

Results for Cc1cccc(CN2CCC(CNc3ncnc4onc(-c5ccc(F)cc5)c34)CC2)c1 ?
GIV Gai3 FP: 106; HCMV UL50-53 inh: -16; Sa growth inh: 117; Sa growth inh second temp: 76

Results for COc1cc(/C=N/n2cnnc2)ccc1OCC(=O)N1CCOCC1 ?
GIV Gai3 FP: 103; HCMV UL50-53 inh: -37; Sa growth inh: 84; Sa growth inh second temp: 103

How did CN(C)c1ccc(NC(=O)NCC2CCCC(CNC(=O)Nc3ccc(N(C)C)cc3)C2)cc1 (configuration not stated) do in these assays?
HCMV UL50-53 inh: -5; Sa growth inh: 107; Sa growth inh second temp: 93

How did Cc1cc(C)cc(N2C(=O)NC(=O)/C(=C\c3ccc(OC(C)C(=O)O)cc3)C2=O)c1 (configuration not stated) do in these assays?
GIV Gai3 FP: 113; HCMV UL50-53 inh: 88*

How did C/C(=N\OC(=O)Nc1c(-c2c(Cl)cccc2Cl)noc1C)C(C)(C)C do in these assays?
GIV Gai3 FP: 108; HCMV UL50-53 inh: 2; Sa growth inh: 102; Sa growth inh second temp: 94

Results for CCC(=O)N1c2ccccc2CC1C(=O)NC(C)C (configuration not stated) ?
GIV Gai3 FP: 102; HCMV UL50-53 inh: -11

Results for Cc1ccc(OCC(=O)Nc2cc3c(cc2Sc2ccccc2)n(C)c(=O)n3C)cc1 ?
GIV Gai3 FP: 103; HCMV UL50-53 inh: -34

Results for CCOc1cccc(C=Nc2ccc(Br)cn2)c1O ?
GIV Gai3 FP: 100; HCMV UL50-53 inh: -13; Sa growth inh: 102; Sa growth inh second temp: 100

Results for O=c1cc(Cl)c2ccccc2o1 ?
GIV Gai3 FP: 97; HCMV UL50-53 inh: -15; Sa growth inh: 71; Sa growth inh second temp: 12
